Compound activity deposited in PubChem BioAssay by National Center for Advancing Translational Sciences (NCATS).
miR-21 reporter: miR-21 reporter, rising signal. 340,000 tested, under 10 active. Potency, µM (doses to about 38.3 µM), for the others: top-dose reporter change, positive = more light. HeLa miR-21 FLuc reporter, luciferase, 48 h; active = well fitted rising curve with a large enough effect; inconclusive = small, poorly fitted or top-dose-only effect; inactive = no such curve, though single readings can be large or run the other way;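 also: % of control where 0% means no effect; miR-21 action dims this reporter so a rising signal means less miR-21 action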
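HeLa cells endogenously expressing miR-21, stably carrying CMV-driven firefly luciferase with a downstream miR-21 binding site, 2000 cells/well. Titrations up to approximately 40 uM, 48 hours; luciferase luminescence read.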
GLA inh pH 4.5: inhibitors of human alpha-galactosidase A at pH 4.5 | purified enzyme, 4-MU-alpha-Gal fluorescence, pH 4.5 | 230,000 tested, under 10 active | activity change, negative = inhibition, % at 105 µM; inconclusive = small, poorly fitted or top-dose-only inhibition, or a rising curve; inactive = flat fitted curve, though single readings scatter; no compound was filed as active;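 also: 0% = full activity with enzyme and -100% = basal without enzyme; dose as in the result columns while the protocol names 77 µM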
Rango-impB inh: Rango-importin beta binding inhibition; 0.031% of 340,000 active; Rango CFP/YFP FRET sensor + importin beta, 45 min; AID 540263; Q14974; Potency, µM (top dose mostly 92.2 µM), inactives show at the top dose inhibition of complex formation; active = rising FRET ratio curve, often small or poorly fitted; inconclusive = mostly compound fluorescence or quenching in the first reads; inactive = flat curves in all reads;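 also: potency is read from the fitted curve at half-maximal effect; 0% = DMSO wells and 100% = buffer wells lacking importin beta; nearly all actives have a fitted effect of over 15% in size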
Target sequence (Q14974 whole entry, looked up): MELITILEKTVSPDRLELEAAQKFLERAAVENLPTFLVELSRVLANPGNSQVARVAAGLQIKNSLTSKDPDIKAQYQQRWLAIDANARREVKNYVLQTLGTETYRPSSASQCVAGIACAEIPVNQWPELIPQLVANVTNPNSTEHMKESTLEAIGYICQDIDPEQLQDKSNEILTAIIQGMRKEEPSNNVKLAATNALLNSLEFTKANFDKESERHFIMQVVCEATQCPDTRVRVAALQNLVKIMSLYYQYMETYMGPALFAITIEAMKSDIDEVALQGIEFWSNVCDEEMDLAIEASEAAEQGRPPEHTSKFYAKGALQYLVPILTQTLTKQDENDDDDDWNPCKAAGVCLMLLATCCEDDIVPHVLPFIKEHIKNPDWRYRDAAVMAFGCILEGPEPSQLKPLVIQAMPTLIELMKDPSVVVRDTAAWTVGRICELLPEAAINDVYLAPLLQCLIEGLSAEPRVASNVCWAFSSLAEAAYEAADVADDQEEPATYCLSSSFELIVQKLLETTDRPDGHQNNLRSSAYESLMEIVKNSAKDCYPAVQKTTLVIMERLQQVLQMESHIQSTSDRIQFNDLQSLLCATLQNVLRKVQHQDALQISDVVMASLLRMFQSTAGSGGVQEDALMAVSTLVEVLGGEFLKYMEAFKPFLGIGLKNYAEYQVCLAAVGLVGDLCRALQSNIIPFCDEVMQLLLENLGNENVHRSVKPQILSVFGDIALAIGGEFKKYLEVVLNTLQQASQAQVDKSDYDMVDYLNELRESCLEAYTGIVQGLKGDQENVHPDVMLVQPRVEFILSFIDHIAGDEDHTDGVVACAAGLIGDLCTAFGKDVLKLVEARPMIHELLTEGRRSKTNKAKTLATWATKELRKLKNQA
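Inhibition scored from the CFP 486 nm/YFP 530 nm FRET ratio 45 min after adding 0.125 microM importin beta to 50 nM Rango biosensor preincubated 5 min with compound (room temperature, PBS with DTT, Tween-20, BSA). No-importin wells as positive control.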
Rango dissoc inh: inhibitors of RanGTP-induced Rango-importin beta complex dissociation | Potency, µM (doses to about 46.1 µM), for inactives: at the highest dose activity change, negative = inhibition | Biochemical FRET Rango-importin beta, RanGTP-induced dissociation | O95149+P62826 | 0.071% of 340,000 active; active means falling FRET ratio curve, often poorly fitted, with flat reads before Ran was added; inconclusive means other falling curves, or compound fluorescence or quenching; inactive means flat or rising ratio curve;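 also: potency is read from the fitted curve at half-maximal effect; % of control where 0% means no effect; nearly all actives have a fitted effect of over 45% in size; -100% = wells without RanGTP and RCC1; the record marks most hits as doubtful in a second field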
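Compounds sat 5 min at room temperature with 0.1 uM Rango biosensor plus 0.25 uM importin beta, then FRET pre-read. RanGTP-RCC1 (0.6 uM Ran, 2mM GTP, 0.2 uM RCC1) added for 45 min, and the CFP/YFP post-read measured blocked complex dissociation.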
The depositor's hits bear a star; ? = inconclusive; nt = no result given; & = joins results of further samples. Only part of the results is shown. The share of hits here may be higher or lower than overall.

SMILES	miR-21 reporter	GLA inh pH 4.5	Rango-impB inh	Rango dissoc inh
COc1ccccc1C(=O)N/C(=C/c1ccccc1)C(=O)NC(CCSC)C(=O)O (configuration not stated)	-6%	1	-0.4%	2%
CCCCCCN(C(=O)CCCCCN1C(=O)NC(c2ccc(-c3ccccc3)cc2)C(C(=O)OCc2ccccc2)=C1C)C(C(=O)NCCCC)c1ccc(OCC(=O)OC)cc1 (configuration not stated)	-7%	5&-3	nt	nt
O=C(C[n+]1cc(-c2ccc(F)cc2)n2c1CCC2)Nc1nc(-c2ccc(F)cc2)cs1	-10%	-1	-3.3%	18%
O=C(Nc1cccc2cccnc12)C1CCCC1	-25%	1	-0.3%	2%
O=C(O)CCCC(=O)Nc1ccc(Cl)cc1	0%	-17	0.8%	0%
CCC(CCC(=O)Nc1cccc(C(=O)O)c1)C(=O)O (configuration not stated)	-11%	-1	-0.7%	-4%
COc1cccc(Cn2cnc3c(NS(=O)(=O)c4ccc(Cl)cc4)c(C)c(C)cc32)c1	8%	6	?	-6%
CCCCC(c1nnnn1C1CCCC1)N1CCN(C2CCCCC2)CC1 (configuration not stated)	-2%	-1	3.5%	3%
CCc1ccc(-c2cc3c(=O)n(CC(=O)NCc4ccccc4F)ncn3n2)cc1	-18%	nt	0.9%	-2%
C#CCOCCOCCOCCNc1nc(N2CCN(C(=O)[C@H](CCC(=O)O)n3cc(C(N)Cc4ccc(O)cc4)nn3)CC2)nc(N2CCN(C(=O)[C@H](Cc3cc4ccccc4[nH]3)n3cc(C(N)[C@H](C)CC)nn3)CC2)n1 (some centres not stated)	-1%	12	0.7%	0%
Cc1ccc(OCC(=O)NNC(=O)c2cccnc2)cc1	-2%	10	2.7%	13%
CS(=O)(=O)c1ccc(Cl)c(NC(=O)CNC(=O)c2ccc3c(c2)OCO3)c1	nt	nt	1.6%	-6%
O=C(N/N=C/c1cccs1)c1ccc2nc[nH]c2c1	-24%	-7	2.2%	-18%
CCc1ccc[n+](-c2[nH]c(=O)sc2/C=N/N=C(\[O-])c2cccnc2)c1	-3%	nt	-1.2%	-5%
Cc1cccnc1NC(=O)CSc1nnc(Cc2ccccc2)o1	-7%	-2	?	29%
O=C(NC1CCCCC1)C(c1ccccc1)N(Cc1ccc2c(c1)OCO2)C(=O)c1cnsn1 (configuration not stated)	-6%	-6	-2.1%	5%
O=C(CC1CCCCC1)Nc1ccc(-c2ccc3nncn3n2)cc1	-3%	0	-0.6%	2%
COc1cc(C(C(=O)NC2CCCC2)N(CCO)C(=O)Cn2nnc(-c3ccc(C)o3)n2)ccc1O (configuration not stated)	0%	nt	0.3%	0%
COc1ccccc1/C=C/C(=O)OCC(=O)Nc1c(F)cccc1F	-7%	-21	2.0%	-6%
O=Cc1ccc(C(=O)O)cc1	nt	nt	-3.0%	10%
CC(=O)Nc1ccc(/C(C)=N/Nc2nc(N3CCOCC3)nc(N3CCOCC3)n2)cc1	-7%	1	-1.4%	-10%
COc1ccc(NC(=O)COc2ccccc2Cl)cc1S(=O)(=O)N1CCCCC1	nt	nt	0.3%	21%
CN(N=Nc1cccc([N+](=O)[O-])c1)c1ccccc1	-52%	nt	0.4%	2%
C=CCn1c(C)cc(C(=O)COC(=O)/C=C/c2c(C)nn(C3CCS(=O)(=O)C3)c2Cl)c1C (configuration not stated)	nt	nt	-0.3%	3%
O=C(NCc1ccco1)c1cc(-c2ccncc2)nc2ccccc12	-2%	5	1.2%	-11%
The results go on:
SMILES	miR-21 reporter	GLA inh pH 4.5	Rango-impB inh	Rango dissoc inh
CC1(C)N=C(N)NC(Nc2ccc(Cl)cc2)=N1	nt	nt	2.2%	-3%
CS(=O)(=O)c1ccc(Cl)c(NC(=O)Cc2ccccc2F)c1	-1%	5	0.4%	2%
Cc1cccc(N=C2NC(=O)CS2)c1C	-1%	1	0.3%	9%
COc1cc(C(=O)Sc2ccc(Cl)cc2)cc(OC)c1OC	9%	5	-1.1%	3%
O=C1OC(NCc2cccnc2)(c2ccc(Cl)cc2)c2ccccc21 (configuration not stated)	-1%	-1	-0.8%	3%
N#Cc1c(-c2ccccc2)ccn(Cc2cccc(Cl)c2)c1=O	-12%	-26	-0.3%	-6%
O=C(NCc1cccnc1)c1ccc(COc2ccc(Cl)cc2)cc1	11%	-4	-4.0%	21%
CC12CCC(=O)N1C(C(=O)OCC(=O)Nc1ccc(C(F)(F)F)cc1)CS2 (configuration not stated)	nt	nt	0.1%	-3%
COc1ccc(Cn2c(-c3ccco3)nc3c(c(=O)c4ccccc4n3C)c2=O)cc1	-3%	-1	-0.9%	2%
Cc1ccc(NC(=O)C(C)[n+]2ccccc2)cc1[N+](=O)[O-] (configuration not stated)	0%	2	-2.5%	11%
COc1ccc(C2CCCN2C(=O)Nc2ccc(F)cc2)cc1OC (configuration not stated)	-15%	8	3.4%	24%
CN(C)c1ccc(CNC2CC(C)(C)NC(C)(C)C2)cc1	-7%	-1	3.2%	-4%
O=C1Cc2c(-c3ccccc3)cc(-c3cccc(Cl)c3)nc2-c2ccccc2N1	nt	nt	11%	29%
COCC(C)NCc1ccccc1C (configuration not stated)	-1%	-2	18µM*	21%
CCc1ccccc1OCC(=O)N(CC)CC(=O)NCc1ccc(F)cc1	-1%	-2	-3.3%	-21%
CN1CCN(C(=O)c2ccc(N(Cc3ccccc3Cl)S(C)(=O)=O)cc2)CC1	-4%	2	-2.0%	1%
Cc1ccccc1NC(=O)N1CCCC1C(=O)NCc1cccs1 (configuration not stated)	-5%	0	1.2%	2%
Nc1cccc(-c2cn(-c3cc4cc(C#CC5(O)CCCCC5)ccc4oc3=O)nn2)c1	nt	nt	-1.2%	-6%
O=S(=O)(c1ccc2nc(N3CCN(c4ccccc4)CC3)ccc2c1)N1CCCCC1	-1%&-1%	nt	2.0%	3%
O=C1C=C(c2cccs2)C[C@H](c2ccccc2)[C@H]1n1nnc([N+](=O)[O-])n1	?	-9	-0.4%	2%
CC12CCC(C(=O)Nc3cccc(NC(=O)C45CCC(C)(C(=O)O4)C5(C)C)n3)(OC1=O)C2(C)C	-1%	3	5.5%	-4%
CS(=O)(=O)c1cnc(-c2cccnc2)nc1N	-9%	3	?	-13%
Cc1cc(C)c[n+](-c2nc3ccccc3nc2[N-]S(=O)(=O)c2ccc(Br)s2)c1	-3%	-5	?	?
CCN(CC)S(=O)(=O)c1ccc(N=NC2=C(O)CCCC2=O)cc1	-7%	3	0.4%	14%
CNS(=O)(=O)c1cccc(C(=O)Nc2cccc(Cl)c2)c1	-19%	-7	-0.3%	-11%

Overlap with the part before: 7 entries, followed by the next part.
SMILES	miR-21 reporter	GLA inh pH 4.5	Rango-impB inh	Rango dissoc inh
O=S(=O)(c1ccc2nc(N3CCN(c4ccccc4)CC3)ccc2c1)N1CCCCC1	-1%&-1%	nt	2.0%	3%
O=C1C=C(c2cccs2)C[C@H](c2ccccc2)[C@H]1n1nnc([N+](=O)[O-])n1	?	-9	-0.4%	2%
CC12CCC(C(=O)Nc3cccc(NC(=O)C45CCC(C)(C(=O)O4)C5(C)C)n3)(OC1=O)C2(C)C	-1%	3	5.5%	-4%
CS(=O)(=O)c1cnc(-c2cccnc2)nc1N	-9%	3	?	-13%
Cc1cc(C)c[n+](-c2nc3ccccc3nc2[N-]S(=O)(=O)c2ccc(Br)s2)c1	-3%	-5	?	?
CCN(CC)S(=O)(=O)c1ccc(N=NC2=C(O)CCCC2=O)cc1	-7%	3	0.4%	14%
CNS(=O)(=O)c1cccc(C(=O)Nc2cccc(Cl)c2)c1	-19%	-7	-0.3%	-11%
COc1ccc(/C=C/C(=O)NNC(=O)C(C)Oc2ccccc2F)cc1OC (configuration not stated)	nt	nt	-0.6%	10%
Cc1nnc(NC(=O)c2ccc(S(=O)(=O)N3CC(C)OC(C)C3)cc2)o1 (configuration not stated)	4%	nt	-1.6%	4%
CN(C)C(=O)CN1C(=O)NC2(CCCc3ccccc32)C1=O (configuration not stated)	0%	nt	1.3%	2%
CCOC(=O)c1nnc(-c2ccc(C)cc2)nc1Oc1ccc(Cl)cc1Cl	-27%	4	-4.3%	12%
CN(C)CCSc1nc(-c2ccccc2)nc2c1CCC2	-11%	5	4.1%	5%
c1ccc(-c2nnc(N3CCN(c4ccccc4)CC3)nc2-c2ccccc2)cc1	0%	-1	-0.8%	0%
NS(=O)(=O)c1ccc2nc(NC(=O)CS(=O)(=O)c3ccc(F)cc3)sc2c1	1%	nt	-5.0%	-11%
COc1cccc(CNS(=O)(=O)c2c(C)[nH]c(C)c2C(=O)N2CCCC2)c1	-4%	nt	1.8%	11%
Nc1nc(CN2CCCCCC2)nc(Nc2ccccc2)n1	-1%	-2	4.0%	7%
COc1ccc(OC)c(CNC(=O)C2CCCN(C(=O)N(C)C)C2)c1 (configuration not stated)	0%	0	8.7%	-17%
CCn1cc(SCC(=O)Nc2cc(C)on2)c2ccccc21	-8%	-10	-4.2%	1%
CCC(C)NC(=O)CSc1nnc(-c2ccc(Cl)cc2)n1N (configuration not stated)	-1%	-5	-1.1%	-6%
Cc1occc1C(=O)Nc1nnc(C(F)(F)F)s1	-4%	-9	15%	5%
O=c1c2ccccc2nc2n1C(CBr)CN2 (configuration not stated)	3%	-2	1.5%	-5%
CCc1cc2c(=O)c(Oc3ccccc3F)c(C)oc2c(CN(C)C)c1O	-6%	?	?	-1%
Cc1ccc(CS(=O)(=O)c2ncc(Cl)c(C(=O)Nc3nnc(C(C)C)s3)n2)cc1	?	nt	-4.5%	-2%
COc1ccc(/C=N/OCC(=O)Nc2nc3ccccc3s2)cc1	-41%	2	-3.1%	-23%
Cc1ccc(-c2nnc(SCC(=O)N/N=C/c3ccc(C(=O)O)cc3)n2C2CCCCC2)cc1	1%	nt	0.0%	7%
CN(CC(=O)Nc1cccc(F)c1)C(=O)C1CC(=O)N(Cc2ccco2)C1 (configuration not stated)	nt	nt	-0.2%	-5%
O=C1CCCCN1CCC(=O)N1CCCC(N2CCN(c3ccccc3)CC2)C1 (configuration not stated)	-5%	nt	-3.1%	1%
COc1ccccc1/C=C/C(=O)c1c2c(c(C)[nH]c1=O)CCCC2	10%	nt	-3.2%	-11%
CCCOC(=O)c1c(-c2ccc(C)cc2C)csc1NC(=O)C1C2CCC(O2)C1C(=O)O (configuration not stated)	12%	3	0.5%	4%
Brc1ccc(-c2ccccc2)cc1	nt	nt	-2.4%	10%
Cn1c(CNC(=O)CNS(=O)(=O)c2ccc(Br)cc2)cc(=O)n(C)c1=O	-1%	nt	-0.7%	0%
C/C(CC(=O)Nc1ccc(N(C)C)cc1)=N\NC(=O)c1ccc([N+](=O)[O-])cc1Cl	-9%	0	0.4%	-12%
(further entries)
SMILES	miR-21 reporter	GLA inh pH 4.5	Rango-impB inh	Rango dissoc inh
Cc1ccc(N2C(=O)c3ccc(N)cc3C2=O)cc1C	-50%	2	?	?
CC(=O)c1ccc(N2CCN(S(=O)(=O)c3ccc4ccccc4c3)CC2)cc1	nt	nt	-1.7%	1%
Fc1ccccc1OCCCCN1CCCCC1	-3%	nt	-0.1%	-6%
Cc1ccc(C)c(OCCC(=O)OCC(=O)NC2CC2)c1	nt	nt	-2.3%	13%
CCCN(CCC)S(=O)(=O)c1ccc(C(=O)Nc2nnc(-c3cc(OC)cc(OC)c3)o2)cc1	2%	-4	-0.4%	6%
N#C/C(=C\c1c[nH]c2ccccc12)C(=O)NCC1CCCO1 (configuration not stated)	-54%	5	1.1%	-2%

Part of the list above in order of formula weight, highest first:
SMILES	miR-21 reporter	GLA inh pH 4.5	Rango-impB inh	Rango dissoc inh
CCCN(CCC)S(=O)(=O)c1ccc(C(=O)Nc2nnc(-c3cc(OC)cc(OC)c3)o2)cc1	2%	-4	-0.4%	6%
Cn1c(CNC(=O)CNS(=O)(=O)c2ccc(Br)cc2)cc(=O)n(C)c1=O	-1%	nt	-0.7%	0%
CC(=O)c1ccc(N2CCN(S(=O)(=O)c3ccc4ccccc4c3)CC2)cc1	nt	nt	-1.7%	1%
N#C/C(=C\c1c[nH]c2ccccc12)C(=O)NCC1CCCO1 (configuration not stated)	-54%	5	1.1%	-2%
Cc1ccc(C)c(OCCC(=O)OCC(=O)NC2CC2)c1	nt	nt	-2.3%	13%
